# Screening data: PubChem, several laboratories
# PABP polyA inh = PABP-poly(A) binding inhibition | P11940 | AID 2014 | hit rate 1% among 290,000 | inhibition, % at 35 µM | PABP-poly(A) RNA binding, fluorescence polarization;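 active means 50% or more with normal probe brightness, or confirmed in later tests; about a fifth of its hits are not listed in these tables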;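 further: calls also rest on retests at 20 µM and on dose response follow-up; controls were probe without protein and protein plus probe with vehicle; some compounds called inactive have numbers as strong as hits; many hits fall short of the cut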
# UUG fidelity = modulators of start codon recognition fidelity in yeast; S. cerevisiae UUG-firefly luciferase reporter, luminescence/redox ratio; activity score, % at 18.7 µM; hit rate 0.13% among 350,000;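 active means replicate mean at a twofold rise or more, about +100% in these data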;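 further: firefly luciferase made from a UUG start codon reports start codon fidelity; reporter light over untreated wells divided by growth signal over untreated wells; some hits fall short of that in this replicate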
# Rce1 inh = yeast Ras-converting enzyme inhibition. hit rate 0.27% among 290,000. calls only. Q03530. yeast membranes, quenched prenylated peptide cleavage fluorescence. AID 2563;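 active means fall in fluorescence gain of 50% or more versus controls, with final raw signal at or below 3038400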;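 further: plate controls were neutral control wells for no effect and wells lacking membranes for full effect; tested at 10 µM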
# Target sequence (Q03530 whole entry, looked up): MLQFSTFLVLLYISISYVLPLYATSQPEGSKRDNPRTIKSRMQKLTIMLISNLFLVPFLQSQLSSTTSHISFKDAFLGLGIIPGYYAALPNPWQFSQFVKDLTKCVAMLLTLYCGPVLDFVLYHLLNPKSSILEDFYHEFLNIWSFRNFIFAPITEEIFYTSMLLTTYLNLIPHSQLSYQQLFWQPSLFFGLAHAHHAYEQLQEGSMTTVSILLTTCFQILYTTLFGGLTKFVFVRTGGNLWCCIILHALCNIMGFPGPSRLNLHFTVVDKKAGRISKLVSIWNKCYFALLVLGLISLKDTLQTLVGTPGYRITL
# CSC inhib = blocks cancer stem cells; cancer stem cell-like cells viability, luminescence; inhibition, % at 7.5 µM; hit rate 1.1% among 300,000;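 active means mean at 75% or more and at least half the replicates too; tested in HMLE shEcad cells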;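 further: 0% = median of negative and 100% = median of positive control wells; the first replicate is given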
# MT1-MMP act inh = inhibitors of human MT1-MMP activation. HT1080 RFP-PRO-GFP cells, GFP/RFP ratio fluorescence, overnight; percent of plate control window, DMSO zero. GFP/RFP ratio change, % at 20 µM. hit rate 0.061% among 360,000. AID 651647;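 active means GFP/RFP ratio change of at least 30% with cell ATP level not reduced by more than half and red fluorescence within 50% of control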; further: strong numbers were not always called active
#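 Assay system: HT1080 cells carrying an RFP-PRO-GFP reporter | Dosing: Single dose of 20 µM compound, 1% DMSO final | Incubation: Cells overnight before dosing, compound overnight, 37 °C, 5% CO2 | Evaluation: GFP/RFP fluorescence ratio | Control set: DMSO and RFP-L50D-GFP cell wells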
# eIF4H FP inh = inhibitors of RNA binding by human eIF4H; hit rate 0.94% among 290,000; eIF4H fluorescence polarization binding assay; inhibition, % at 35 µM; Q15056;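 active means 50% or more with normal probe brightness, or confirmed in later tests; about a fifth of its hits are not listed in these tables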;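 further: calls also rest on retests at 20 µM and on dose response follow-up; 0% = protein and probe with vehicle and 100% = probe without protein; strong numbers were not always called active; many hits fall short of the cut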
# HIV Env fusion = HIV envelope-mediated fusion inhibition | HeLa-JRFL Env/CEM21 cell fusion, luciferase | inhibition, % at 12.3 µM | hit rate 1.1% among 360,000;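 active means mean replicate inhibition score of at least 50 and every replicate individually at or above 50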;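 further: 0% = plate neutral controls and 100% = maraviroc near 300 nM; one replicate is shown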
# eIF4H FP inh retest = further read-out of eIF4H FP inh, marked with its call; inhibition, %; compound at 20 µM; confirmation average;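 mean of two retest wells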
# PABP polyA inh retest = recorded beside PABP polyA inh, whose call it bears; inhibition, %; compound at 20 µM; confirmation repeats;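 mean of two retest wells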
# MT1-MMP act inh RFP = also measured in MT1-MMP act inh; calls as there; RFP signal change, %; measured here: RFP expression control read;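 0 = vehicle wells; hits needed this value within 50% of zero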
# An asterisk follows results filed as active; i = inactive; nt = not tested or not shown. Not all compounds are listed, so the mix of outcomes need not match the whole.
SMILES,PABP polyA inh,UUG fidelity,Rce1 inh,CSC inhib,MT1-MMP act inh,MT1-MMP act inh RFP,eIF4H FP inh,HIV Env fusion,others
Fc1ccc(Nc2nc(N3CCOCC3)c3ccccc3n2)cc1,25.7,-11.3,i,nt,1.5,-9.6,-3.4,nt,
CCN1CCN(c2ccc(S(=O)(=O)N3CCCCC3)cc2NC(=O)/C=C/c2ccc([N+](=O)[O-])cc2)CC1,nt,-7.3,i,-1.5,-1.0,-5.7,nt,nt,
COc1nc(Oc2ccc(=O)n(C)n2)nc(N(C)C)n1,2.1,-11.2,nt,-10.7,3.6,4.5,10.0,nt,
O=C(NCCCn1ccnc1)/C(=C/c1cccs1)NC(=O)c1ccco1,4.7,-12.3,i,-6.3,-0.5,3.4,0.5,1.8,
O=S(=O)(c1ccc(Cl)cc1)N1CCN(C(=S)Nc2ccccc2F)CC1,0.9,-18.2,i,15.5,-2.2,-4.7,-10.0,3.8,
O=C(NNS(=O)(=O)c1ccc2ccccc2c1)C1CCN(Cc2ccccc2)CC1,-2.2,-1.2,i,-3.2,-0.5,2.8,-8.5,-89.7,
CCOc1ccc(S(=O)(=O)N/N=C(\C)c2ccc(OC)cc2OC)cc1,-3.6,nt,i,-0.8,-0.2,1.3,1.2,1.1,
Cc1cccc(C)c1NC(=O)C1(NC(=O)Cn2cccc([N+](=O)[O-])c2=O)CCCCC1,-2.6,nt,i,-22.3,-1.8,2.5,3.0,1.2,
CCCn1c(SCC(=O)N2CCCCC2)nnc1C(C)C,-5.8,nt,i,3.6,1.9,5.6,-1.1,-0.9,
O=C1c2ccccc2NC(c2ccccc2)N1/N=C/c1ccccc1 (configuration not stated),0.5,-30.7,i,-7.2,0.1,-3.8,-1.9,nt,
COc1ccc(-c2cc(-c3cccs3)c(C#N)c(SCC(=O)NCc3ccccc3)n2)cc1,-7.9,-7.8,i,5.4,4.1,-6.7,-2.9,nt,
COc1cc(OC)c(S(=O)(=O)NCc2ccco2)cc1S(=O)(=O)NCc1ccco1,11.3,-14.5,i,-19.8,1.4,-0.6,-0.8,nt,
N#Cc1cc2nc(O)c(O)nc2cc1[N+](=O)[O-],nt,-12.3,nt,-11.3,-3.2,0.9,nt,3.3,
Cc1cc(C)cc(N(C(C)C(=O)NCc2ccc3c(c2)OCO3)S(C)(=O)=O)c1 (configuration not stated),17.9,-13.9,i,-1.5,6.7,2.5,-10.8,-9.5,
Cc1ccc(-n2c(-c3ccncc3)n[nH]c2=S)c(C)c1,-2.4,nt,i,-2.9,1.3,1.3,2.1,12.9,
O=c1[nH]cnc2scc(-c3ccccc3)c12,-10.7,nt,i,-10.3,-6.6,-5.4,-1.1,nt,
Cc1ccccc1OCCn1cc(/C(N)=N/O)c2ccccc21,-7.5,-17.3,i,17.9,0.9,-6.1,2.9,nt,
CCOc1cc(C(=O)NCc2ccc(F)cc2)ccc1OCC(=O)N1CCCCC1,nt,-9.7,nt,-14.1,3.6,2.8,nt,nt,
CCCCOC(=O)c1ccc(N2C(=O)CC(N3CCN(C/C=C/c4ccccc4)CC3)C2=O)cc1 (configuration not stated),-17.7,-12.9,i,-8.3,0.2,-5.8,-1.9,-15.8,
CCC1CCCCN1C(=O)c1ccc([N+](=O)[O-])o1 (configuration not stated),-1.4,-14.0,i,0.7,-1.4,-1.2,-9.0,-2.1,
COc1nc(NCc2cccnc2)nc(OC)n1,-5.4,nt,i,-6.9,5.1,2.7,-1.1,nt,
Cc1ccc(SCCC(=O)NCc2ccncc2)cc1,0.9,nt,i,-2.7,-0.8,-0.3,-3.4,-19.7,
CCOC(=O)C1CCCN(C(=O)Cn2nc(CC)n3c(cc4sccc43)c2=O)C1 (configuration not stated),0.0,-0.2,i,nt,3.6,-3.2,0.6,-3.8,
Cn1c(SCC(=O)C(C)(C)C)nnc1-c1ccncc1,-4.4,-8.2,i,-18.8,2.6,2.8,-5.0,-18.7,
CN(C(=O)CSc1nnc(Nc2ccccc2)s1)c1c(N)n(Cc2ccccc2)c(=O)[nH]c1=O,-2.0,7.3,i,-7.3,0.9,3.6,-2.7,nt,
# Further structures:
SMILES,PABP polyA inh,UUG fidelity,Rce1 inh,CSC inhib,MT1-MMP act inh,MT1-MMP act inh RFP,eIF4H FP inh,HIV Env fusion,others
O=C(NCc1ccccc1C(F)(F)F)c1cccc2c1C(=O)c1ccc(N3CCCCC3)cc1S2(=O)=O,nt,-14.6,nt,nt,-94.9,-1.7,nt,23.5,
COC(=O)c1ccccc1NC(=O)C1CC(=O)N(c2ccc(C)c(C)c2)C1 (configuration not stated),2.9,6.9,nt,-6.9,3.7,0.1,10.4,-102.3,
Cc1ccc(S(=O)(=O)CC(=O)Nc2ccc(S(=O)(=O)Nc3ccccn3)cc2)cc1,-1.2,nt,i,-17.8,-1.2,-0.6,4.4,6.6,
N#Cc1c(NC(=O)CN2CCCCC2)sc2c1CCC2,66.2,-4.0,i,-7.4,1.7,5.0,45.4*,nt,eIF4H FP inh retest=83.0*;PABP polyA inh retest=36.9
Cc1cc[n+](CC2OCc3ccccc3CO2)cc1,0.9,nt,i,2.5,-0.2,6.0,0.9,3.0,
O=C(CSc1nnc(COc2ccccc2)n1Cc1ccco1)Nc1ccc2c(c1)OCCO2,-6.0,-9.0,i,-2.2,4.3,1.6,-9.4,nt,
Cc1ccc(-n2c(C)cc(/C=N/NC(N)=S)c2C)cc1,1.7,nt,i,-8.4,-3.5,-1.1,-0.7,-22.9,
COc1cccc(CN2CCN(Cc3cccc(Oc4ccccc4)c3)CC2)c1OC,6.6,6.1,i,30.6,2.1,4.3,3.4,-2.6,
Cc1cccc(C)c1NC(=O)c1ccc([N+](=O)[O-])s1,-5.7,nt,i,16.3,2.8,-1.9,1.5,-20.0,
Cc1ccc(OCc2nc(-c3cccs3)no2)c([N+](=O)[O-])c1,-5.2,nt,i,0.5,13.7,-3.5,-3.9,-109.8,
CCn1ncc(C(=O)Nc2ccc([N+](=O)[O-])cc2OC)c1C,nt,17.1,i,-17.7,2.1,-2.6,nt,-20.3,
CC(C)(C)c1cc(N)n2nc(C(C)(C)C)cc2n1,-0.5,nt,i,-12.9,-5.2,-2.5,15.5,-0.2,
Cc1sc2ncnc(N3CCN(S(=O)(=O)c4ccc(F)cc4)CC3)c2c1C,-2.8,-2.0,i,6.3,-5.2,-16.4,-2.2,17.2,
COCCNc1nnc(Cc2ccc(Cl)cc2)c(=O)[nH]1,18.8,-22.4,i,nt,2.4,4.7,-6.0,-18.0,
CCOc1ccccc1CN1CCCC(C(=O)Nc2cccc(-n3cccn3)c2)C1 (configuration not stated),-15.6,-12.2,i,nt,6.4,-7.8,-24.4,7.7,
COc1ccc(-n2nc(C(=O)NCC(=O)NCc3ccc(F)cc3)c3ccccc3c2=O)cc1OC,-22.9,3.0,i,nt,-17.8,-15.7,-12.3,3.0,
Cc1cc(C(=O)NNC(=O)c2cccs2)c(C)o1,nt,-12.8,nt,-10.9,-1.5,1.7,nt,nt,
O=C(NNC(=S)Nc1cccc(Cl)c1)c1ccccc1,-5.0,-26.6,i,-10.2,3.2,4.0,5.2,-19.7,
COc1ccc(OC)c2c1sc(=NC(=O)C(C)(C)C)n2C,0.6,-15.3,i,20.9,2.1,2.2,0.4,-10.3,
O=C(CN1CCN(c2ccccc2)CC1)Nc1ccc(-n2cnnn2)cc1,-2.5,-1.1,i,-5.0,1.4,-4.4,-10.2,nt,
COC(=O)c1sc(NC(C)=O)c(C(=O)OC)c1C,-12.7,0.9,i,-7.7,-5.0,-3.1,16.9,-44.4,
c1ccc(OCCN2CCN(Cc3nc(-c4ccc5c(c4)OCO5)no3)CC2)cc1,3.3,-15.1,nt,-2.7,0.4,-0.5,-15.9,8.2,
O=C(N/N=C/c1ccco1)c1cc(-c2ccncc2)nc2ccccc12,-0.5,-9.7,i,nt,-7.5,-9.5,8.5,10.4,
CCCCN=CC1=C(O)CC(c2ccccc2)CC1=O (configuration not stated),-1.7,-5.1,i,-5.1,6.7,-1.4,1.7,-6.1,
CCC(=O)c1ccc(OCC(O)CNC2CCCC2)cc1 (configuration not stated),11.4,-2.6,i,-0.9,0.9,4.9,-1.7,-1.4,
# The listing continues:
SMILES,PABP polyA inh,UUG fidelity,Rce1 inh,CSC inhib,MT1-MMP act inh,MT1-MMP act inh RFP,eIF4H FP inh,HIV Env fusion,others
CCN(CC)CCNc1nc(SC)nc2sc3c(c12)CCN(C)C3,12.2,0.8,i,5.5,-3.3,-1.9,1.0,16.7,
O=C(CN1CCCCC1)Nc1cccc(Cl)c1Cl,2.0,-8.4,i,-15.2,-3.9,1.5,-7.0,nt,
[O-]C1=N/[N+](=C/c2ccccc2)CC1,-5.7,-10.0,i,-0.6,1.3,1.4,-7.6,3.5,
Nc1nc(N)nc(-c2cc(O)ccc2O)n1,nt,-12.4,nt,-7.8,-10.7,-5.7,nt,52.7,
COc1cccc(C(=O)NCC2CCCN2S(=O)(=O)c2ccccc2)c1 (configuration not stated),nt,-7.5,i,nt,-0.1,-2.4,nt,-7.8,
CC1=C(C(=O)N2CCOCC2)C(c2c(F)cccc2F)NC(=O)N1 (configuration not stated),3.6,-14.0,i,-6.2,4.7,5.6,1.6,5.5,
O=Cc1ccccc1Oc1nc(N2CCOCC2)nc(N2CCOCC2)n1,-10.3,nt,i,13.3,-1.8,-0.4,-5.3,-23.3,
CN1C(=O)N(CC(=O)Nc2cccc(S(=O)(=O)N(C)c3ccccc3)c2)C(=O)C12CCCCC2,nt,-18.1,nt,nt,6.7,-2.3,nt,17.5,
CCc1ccc(N(CC(=O)NC2CCCCC2)S(=O)(=O)c2c(C)noc2C)cc1,5.4,-9.1,i,-13.5,0.2,0.7,-0.3,-3.9,
CSc1nnc2c(n1)OC(C)=Nc1ccccc1-2,10.7,0.9,i,3.2,1.5,3.8,4.1,0.7,
O=C(NC1CCCC1)c1ccc(CS(=O)(=O)Cc2ccccc2Cl)o1,nt,8.3,i,-2.1,3.5,4.0,nt,-6.9,
COc1ccc(OC)c(NC(=O)CSc2nnc(CNC(=O)COc3ccc(Cl)cc3)o2)c1,5.6,5.9,i,-17.8,-1.3,1.0,3.0,nt,
O=C1NC(c2ccccc2)(C(F)(F)F)C(=O)N1Cc1cccnc1 (configuration not stated),11.8,-11.6,i,-6.3,0.6,1.3,-4.8,nt,
COc1ccc(OC)c(/C=N\NC(=O)c2c(C)nc3cc(C)ccn23)c1,0.2,-58.0,i,-11.6,-1.4,1.4,-5.6,-0.4,
COC(=O)c1ccc(NC(=O)CNC(=O)C2CCCCC2)cc1,-3.4,-10.3,nt,0.6,-0.2,-2.2,-3.0,nt,
COc1cc(CCC(=O)OCC(=O)N2CC(=O)Nc3ccccc32)cc(OC)c1OC,nt,23.0,nt,-8.4,-2.3,1.6,nt,1.9,
CN(NC(=O)c1c(Cl)cccc1Cl)c1cccc(Cl)n1,3.8,nt,i,-4.0,2.1,0.7,3.6,0.2,
CNc1cc([N+](=O)[O-])ccc1N/C=C/C(=O)c1ccc2c(c1)OCO2,0.3,nt,i,-15.3,10.6,1.9,4.7,nt,
CC1CCc2nc(N)c(C#N)c(-c3cccnc3)c2C1 (configuration not stated),-6.4,-7.2,i,12.9,-15.6,-10.3,1.5,28.8,
CN(Cc1ccccc1)Cc1c(F)cccc1F,0.9,-8.9,i,5.6,-3.9,-0.2,-1.3,10.7,
CCc1nnc(NC(=O)c2cccc(S(=O)(=O)N3CCCCC3)c2)s1,2.4,-6.3,i,-7.7,-0.5,-5.5,4.8,-4.3,
